# Source: PubChem BioAssay
# Sa growth 42C: S. aureus growth inhibition | S. aureus RN4220 growth, OD600, 20 h, 42 °C; stronger effect = lower value | relative growth, % (test concentration not listed) | 170,000 compounds, 0.53% hits | AID 720641;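 active = growth at 42 °C up to 50% and 20 or more points under that at 30 °C, or under 10% at both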;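 note: 300 nL library stock went into each well; scaled to the means of positive and negative controls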
# HCMV NEC inh: cytomegalovirus nuclear egress complex inhibition | HTRF UL50-UL53 interaction, normalized percent inhibition | inhibition, % (concentration not given with the values) | 190,000 compounds, 0.15% hits;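 active = both replicates at 50% or more, plus weaker picks with an unusually low signal ratio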;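 note: stock transfer was 100 nL into about 20 µL; 0% = negative control wells and 100% = wells with untagged competitor protein; inactives centre near -12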
# GIV-Gai inh: blocks GIV peptide binding to rat Galpha-i3 | P08753 | 210,000 compounds, 0.42% hits | Galpha-i3/FITC-GIV peptide fluorescence polarization, 90 min; stronger effect = lower value; scaled: aluminum fluoride 0%, vehicle 100% | percent of control (FP), % (concentration not given with the values);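 active = replicate mean at 85% of control or lower, very high polarization wells dropped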;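 note: wells of about 15 µL received 100 nL stock; the first replicate is given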
# Target sequence (P08753 whole entry, looked up): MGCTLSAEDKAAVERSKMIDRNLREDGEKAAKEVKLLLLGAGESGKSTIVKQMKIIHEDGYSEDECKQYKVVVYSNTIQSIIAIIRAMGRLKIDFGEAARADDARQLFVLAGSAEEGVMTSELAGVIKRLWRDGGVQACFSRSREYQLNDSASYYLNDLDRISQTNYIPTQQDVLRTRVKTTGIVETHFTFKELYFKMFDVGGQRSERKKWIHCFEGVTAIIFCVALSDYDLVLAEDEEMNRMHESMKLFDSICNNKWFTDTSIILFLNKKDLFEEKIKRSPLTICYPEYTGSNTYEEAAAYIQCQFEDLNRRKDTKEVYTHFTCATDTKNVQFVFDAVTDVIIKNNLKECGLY
# Sa growth 42C second temp: recorded beside Sa growth 42C, whose call it bears; relative growth, %; measured here: growth at 30 °C;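 optical density after 20 h as mean of two plates; 100% = untreated growth and lower means inhibition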
# Active calls of the source: *; / = no result given; & = joins results of further samples. Rows were taken by chance; overall some 0.83% were active at least once.
SMILES,Sa growth 42C,Sa growth 42C second temp,HCMV NEC inh,GIV-Gai inh
COc1cc(/C=C2/C(=O)NC(=O)N(c3cccc(C)c3)C2=O)c([N+](=O)[O-])cc1OC,/,/,-55,107
COc1ccc(OC)c(S(=O)(=O)NC2CCCCNC2=O)c1 (configuration not stated),99,99,20,113
CC(C)CC(=O)NCC(c1ccc2c(c1)OCO2)N1CCN(c2ccccc2F)CC1 (configuration not stated),113,90,/,94
O=C(CSc1nncc2ccccc12)Nc1ccccc1,94,81,0,/
Cc1cccc2c(=O)cc(CSc3ccccc3NC(=O)c3cccc(Br)c3)[nH]c12,97,83,/,102
CCCOc1ccc(CN(C(=O)c2cc(=O)c3ccc(C)cc3o2)C2CCS(=O)(=O)C2)cc1 (configuration not stated),96,80,-3,105
CCOC(=O)c1c(C)[nH]c(C(=O)N2CCC(CC(=O)NCc3ccccc3)CC2)c1C,/,/,-14,108
O=C(CSc1c2c(nc3cc(Cl)ccc13)CCCC2)NCCCN1CCCCCC1,94,58,/,109
COc1ccc2c(c1)-c1ccccc1S(=O)(=O)N2C,138,88,1,/
COc1ccc(C2CC(c3ccc(Br)cc3)=NN2C(C)=O)cc1OC (configuration not stated),/,/,-5,106
CCN1C2=C(C(=O)CCC2)C(c2cccc(OC)c2)C2=C1CCCC2=O,88,83,-65,101
O=S(=O)(Nc1ccc(F)c(Cl)c1)c1ccc(Br)s1,39,29,-41,109
CCc1ccc(OCC(=O)Nc2cc3oc4ccccc4c3cc2OC)c(Br)c1,88,92,-5,103
N#CC(CC(=O)N1CCCC1)(CC(=O)N1CCCC1)c1nc2ccccc2s1,92,105,10,/
Cn1cc(S(=O)(=O)c2cccc(Cl)c2)c(=O)c2cc(F)c(N3CCCCC3)cc21,109,89,/,104
Cc1cc(C)nc(SCC(=O)OCC(=O)Nc2ccc(N3CCCCC3)cc2)n1,86,94,-12,/
CCCCn1c(N)c(N2CCN(Cc3ccccc3)CC2)c(=O)[nH]c1=O,106,96,16,/
Cc1onc(-c2ccccc2)c1-c1nnc(CSc2nnnn2C)o1,90,96,-18,/
COc1ccc(CCCc2n[nH]c(=S)o2)c(C)c1,113,80,-3,100
O=C(Nc1cccc(F)c1)C1CCN(S(=O)(=O)c2cccc3nsnc23)CC1,108,84,-42,104
CCc1ccc(CNC(=O)CCc2c(C)nn(-c3ccc(N4CCCCC4)nn3)c2C)cc1,93,95,/,103
O=[N+]([O-])c1cccc2c(Br)[nH]nc12,/,/,-103&-19&-19&-142&-106,96
CCOC(=O)c1sc2nc(NC(=O)Cc3ccccc3)sc2c1C,93,100,-17,99
Cc1cc(C)c(NC(=O)Cc2ccc(-n3c(C)nc4cccnc43)cc2)c(C)c1,96,97,/,113
O=C(O)CCCCN1Cc2ccccc2C1,97,90,0,100

# Molecules above containing a Cl atom, in the order listed:
SMILES,Sa growth 42C,Sa growth 42C second temp,HCMV NEC inh,GIV-Gai inh
O=C(CSc1c2c(nc3cc(Cl)ccc13)CCCC2)NCCCN1CCCCCC1,94,58,/,109
O=S(=O)(Nc1ccc(F)c(Cl)c1)c1ccc(Br)s1,39,29,-41,109
Cn1cc(S(=O)(=O)c2cccc(Cl)c2)c(=O)c2cc(F)c(N3CCCCC3)cc21,109,89,/,104

# (next part)
SMILES,Sa growth 42C,Sa growth 42C second temp,HCMV NEC inh,GIV-Gai inh
C=C(C)c1cccc(C(C)(C)NC(=O)Nc2ccc3c(c2)oc2ccccc23)c1,111,86,/,101
COc1cc(-c2nc3ccccc3c(=O)n2N)cc(OC)c1OC,91,87,-22,105
Cn1c(=O)c(=O)n(C)c2cc(N3CCOCC3)c(NC(=O)c3ccccc3Cl)cc21,/,/,-4,106
O=C(NCCn1c(-c2ccncc2)nc2cccnc21)c1ccc(F)cc1,/,/,4,101
COCCNc1cn[nH]c(=O)c1Cl,115,98,0,105
CCCCCCCC/C=C\CCCCCCCC(=O)NCCO,/,/,-4&-7&-7&-20,96
O=C(CCC(=O)N1CC=C(c2c[nH]c3ccccc23)CC1)NCCN1CCCC1,/,/,13,104
CC(C)=CC(=O)Nc1ccc2c(c1)OCO2,108,96,-10,107
CCOC(=O)c1cc(S(=O)(=O)NCCC(=O)NC2CCC(C)CC2)cn1C (configuration not stated),/,/,0,110
CC(C)NC(=O)c1cc2ccc3cccnc3c2[nH]1,/,/,-6,99
O=C(Nc1ccccc1)c1c(F)cccc1F,98,93,-6,/
CCCN(C#N)c1nc(NC(C)C)nc(NC(C)C)n1,82,83,-9,/
Cc1cc(C)c(S(=O)(=O)/N=C2\SCCN2S(=O)(=O)c2c(C)cc(C)cc2C)c(C)c1,112,85,/,92
CC(C)=NOC1=NS(=O)(=O)c2ccccc21,114,105,-5,103
CC1SCC(=O)N(c2ccc(C(F)(F)F)cc2)C1=O (configuration not stated),/,/,-4,98
COC(=O)c1ccccc1NC(=O)Cn1c(=O)n(CCCC(=O)NCc2ccccc2OC)c(=O)c2ccccc21,104,113,2,104
CC(C)c1ccc(NC(=O)C2CCN(c3nc(-c4ccc(C(C)C)cc4)no3)CC2)cc1,92,97,/,105
Fc1ccc(CNCc2cccn2-c2nnc(N3CCCC3)s2)cc1,93,61,-23,108
O=C(O)C1CC=CCC1C(=O)N1CCN(c2nc(-c3ccccc3)c3cc([N+](=O)[O-])ccc3n2)CC1 (configuration not stated),/,/,-65,103
Cc1nccc(-c2cccc(C#N)c2)n1,77,89,-13,104
CCc1ccc(C(=O)Nc2cccc(-c3nc4cc(C(C)C)ccc4o3)c2)cc1,91,92,-6,108
N#Cc1c2c(c(NCc3ccccn3)n3c1nc1ccccc13)CCCC2,89,92,-43,101
Cc1cccc(NC(=O)CN2C(=O)CCc3cc(S(=O)(=O)N4CCC(C)CC4)ccc32)n1,/,/,-32,106
Cc1ccccc1C(=O)NCCn1cc(SCC(=O)Nc2nccs2)c2ccccc21,92,78,-10,98
COc1ccc2c(c1)CC(C(=O)NCCN1CCN(c3ccccc3F)CC1)CO2 (configuration not stated),89,85,/,97

# (further entries)
SMILES,Sa growth 42C,Sa growth 42C second temp,HCMV NEC inh,GIV-Gai inh
COc1ccc(CNC(=O)CCn2cnc3c2c(=O)n(C)c(=O)n3C)cc1,77,81,6,108
CC1CCC(NC(=O)c2ccc(NC(=O)c3ccc(=O)[nH]c3)cc2)CC1 (configuration not stated),101,94,/,112
O=C(O)c1ccccc1/C=N/NC(=O)C1CCCCC1,85,91,-2,/
COc1ccc(CCNC(=O)c2ccc3c(SCC(=O)O)c4c(nc3c2)CCCC4)cc1OC,98,92,/,99
Cc1cc(C)c2nc(N3CCC(C(=O)N4CCN(c5ccccn5)CC4)CC3)sc2c1,85,82,0,100
COc1ccc(S(=O)(=O)N(C)c2ccc(C(=O)N3CCN(c4ccccc4F)CC3)cc2)cc1OC,130,107,-8,103
CC(=O)Nc1ccc(S(N)(=O)=O)cc1,101,74,-31,/
CCn1cc2nc(SCC(=O)Nc3ccccc3C(F)(F)F)n(Cc3ccc(C)cc3)c(=O)c2n1,107,81,-4,110
CCCCC(=Nc1ccccc1)C1=C(O)CCCC1=O,119,90,-28,/
CSc1sc(C(=O)OC(C)C)c2c1C(=O)CC(C)(C)C2,93,83,-20,115
O=C(Nc1cc2c(oc1=O)CCCC2=O)c1ccccc1,/,/,-14,110
COc1cccc(CNC(=O)c2ccc3c(=O)n4nc(Nc5ccccc5)sc4nc3c2)c1,109,87,/,107
Cc1ccc(-c2noc(CCC(=O)NCCN3CCN(c4cccc(Cl)c4)CC3)n2)cc1,87,82,-25,102
Cc1ccc(-c2nc(C)sc2CC(=O)NC2=NCCS2)cc1,82,95,-23,/
CCc1ccc(-c2[nH]nc3c2C(c2ccc(OC)cc2)C2=C(CC(C)(C)CC2=O)N3)cc1 (configuration not stated),/,/,-20,105
CCc1ccccc1NC(=O)c1ccc2[nH]c(C)c(C)c2c1,109,105,/,105
Cc1ccc2c(COC(=O)CN3C(=O)C4CC=CCC4C3=O)cc(=O)oc2c1 (configuration not stated),92,81,-14,/
COc1ccc(CCNC(=O)c2ccc3c(c2)c(C)c(C)n3C)cc1OC,/,/,9,102
O=C(NC(=S)Nc1ccccc1)c1ccc2nonc2c1,95,84,-64,106
CC(C)n1cnc2nc(CSc3ccc(NC(=O)C4CCCCC4)cc3)cc(=O)n21,/,/,-27,101
O=C(Cn1c(=O)n(-c2ccccc2)c(=O)c2c3c(sc21)CCCC3)Nc1ccc(F)cc1F,93,93,-17,106
COc1ccc(C(=O)COC(=O)c2ccc3c(=O)n4c(nc3c2)CCCCC4)c(OC)c1,85,88,-12,/
CS(=O)(=O)NC1c2cccc3cccc(c23)C1N1CCOCC1 (configuration not stated),109,91,-7,/
O=C(CCC1N=C2c3ccccc3N=C(SCc3ccccc3F)N2C1=O)NCc1ccc(F)cc1 (configuration not stated),93,88,/,103
CCSc1nnc2n(Cc3ccccc3OC)c(=O)c3ccccc3n12,83,91,-20,/

# Additional records
SMILES,Sa growth 42C,Sa growth 42C second temp,HCMV NEC inh,GIV-Gai inh
COc1ccc(NC(=O)C2CCN(S(=O)(=O)c3ccc4[nH]c(=O)ccc4c3)CC2)cc1Cl,126,97,/,109
COc1ccc(CCN2C(=O)c3oc4ccc(F)cc4c(=O)c3C2c2ccc(C(C)(C)C)cc2)cc1 (configuration not stated),79,84,-14,103
CCn1c(C(=O)NCc2ccccc2)cc2sccc21,104,81,4,103
COC(=O)c1cc2n(n1)CCCNC2=O,/,/,-8,97
CCOC(=O)Cc1cc(=O)[nH]c(/N=C(\N)Nc2ccc(C)cc2C)n1,96,86,-9,105
Cn1nc(C(F)(F)F)c2cc(C(=O)Nc3ccc(F)cc3)sc21,96,75,10,98
CCCc1cc2c(c(NC(C)=O)n1)c(=O)oc1ccccc12,111,88,-3,/
CCc1ccc(NC(=O)CSC2=Nc3ccccc3C3=NC(CC(=O)NC4CCCCC4)C(=O)N23)cc1 (configuration not stated),120,96,/,105
Cc1ccc(-c2nc(CSc3nc(-c4cccnc4)cc(=O)[nH]3)c(C)o2)cc1,/,/,-17,103
CC(C)(C)C(=O)CSc1nnc(Nc2ccccc2)s1,100,89,-16,/

# 28 successive compounds from above:
SMILES,Sa growth 42C,Sa growth 42C second temp,HCMV NEC inh,GIV-Gai inh
CC(=O)Nc1ccc(S(N)(=O)=O)cc1,101,74,-31,/
CCn1cc2nc(SCC(=O)Nc3ccccc3C(F)(F)F)n(Cc3ccc(C)cc3)c(=O)c2n1,107,81,-4,110
CCCCC(=Nc1ccccc1)C1=C(O)CCCC1=O,119,90,-28,/
CSc1sc(C(=O)OC(C)C)c2c1C(=O)CC(C)(C)C2,93,83,-20,115
O=C(Nc1cc2c(oc1=O)CCCC2=O)c1ccccc1,/,/,-14,110
COc1cccc(CNC(=O)c2ccc3c(=O)n4nc(Nc5ccccc5)sc4nc3c2)c1,109,87,/,107
Cc1ccc(-c2noc(CCC(=O)NCCN3CCN(c4cccc(Cl)c4)CC3)n2)cc1,87,82,-25,102
Cc1ccc(-c2nc(C)sc2CC(=O)NC2=NCCS2)cc1,82,95,-23,/
CCc1ccc(-c2[nH]nc3c2C(c2ccc(OC)cc2)C2=C(CC(C)(C)CC2=O)N3)cc1 (configuration not stated),/,/,-20,105
CCc1ccccc1NC(=O)c1ccc2[nH]c(C)c(C)c2c1,109,105,/,105
Cc1ccc2c(COC(=O)CN3C(=O)C4CC=CCC4C3=O)cc(=O)oc2c1 (configuration not stated),92,81,-14,/
COc1ccc(CCNC(=O)c2ccc3c(c2)c(C)c(C)n3C)cc1OC,/,/,9,102
O=C(NC(=S)Nc1ccccc1)c1ccc2nonc2c1,95,84,-64,106
CC(C)n1cnc2nc(CSc3ccc(NC(=O)C4CCCCC4)cc3)cc(=O)n21,/,/,-27,101
O=C(Cn1c(=O)n(-c2ccccc2)c(=O)c2c3c(sc21)CCCC3)Nc1ccc(F)cc1F,93,93,-17,106
COc1ccc(C(=O)COC(=O)c2ccc3c(=O)n4c(nc3c2)CCCCC4)c(OC)c1,85,88,-12,/
CS(=O)(=O)NC1c2cccc3cccc(c23)C1N1CCOCC1 (configuration not stated),109,91,-7,/
O=C(CCC1N=C2c3ccccc3N=C(SCc3ccccc3F)N2C1=O)NCc1ccc(F)cc1 (configuration not stated),93,88,/,103
CCSc1nnc2n(Cc3ccccc3OC)c(=O)c3ccccc3n12,83,91,-20,/
COc1ccc(NC(=O)C2CCN(S(=O)(=O)c3ccc4[nH]c(=O)ccc4c3)CC2)cc1Cl,126,97,/,109
COc1ccc(CCN2C(=O)c3oc4ccc(F)cc4c(=O)c3C2c2ccc(C(C)(C)C)cc2)cc1 (configuration not stated),79,84,-14,103
CCn1c(C(=O)NCc2ccccc2)cc2sccc21,104,81,4,103
COC(=O)c1cc2n(n1)CCCNC2=O,/,/,-8,97
CCOC(=O)Cc1cc(=O)[nH]c(/N=C(\N)Nc2ccc(C)cc2C)n1,96,86,-9,105
Cn1nc(C(F)(F)F)c2cc(C(=O)Nc3ccc(F)cc3)sc21,96,75,10,98
CCCc1cc2c(c(NC(C)=O)n1)c(=O)oc1ccccc12,111,88,-3,/
CCc1ccc(NC(=O)CSC2=Nc3ccccc3C3=NC(CC(=O)NC4CCCCC4)C(=O)N23)cc1 (configuration not stated),120,96,/,105
Cc1ccc(-c2nc(CSc3nc(-c4cccnc4)cc(=O)[nH]3)c(C)o2)cc1,/,/,-17,103
